Screening data from PubChem BioAssay.
RanGTP-Impb inh = inhibitors of RanGTP-importin-beta interaction, primary screen, biochemical, FRET, CFP-Ran, YFP-importin-beta, homogeneous | inhibition, % (test concentration not listed) | cell-free CFP-Ran/YFP-importin-beta FRET ratio | 300,000 tested, 1.1% active;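 active = most replicates above 15%; inconclusive = exactly half above 15%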;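 also: 0% = DMSO wells and 100% = Ran loaded with GDP instead of GTP; wells of about 40 µL received 100 nL stock; the first replicate is given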
Beta2AR agonist = agonists of human beta-2 adrenergic receptor inducing internalization; P07550; Am2.2-beta2AR cells, FAP receptor internalization, flow cytometry; reference of the scale not given here; response, % (test concentration not listed); 340,000 tested, 0.43% active;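 active = response above a set limit, near 3 SD of response in nonfluorescent compounds, cut at about 42% in these data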;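 also: stock transfer was 100 nL into about 11 µL; a reference agonist was the positive control; negative values mostly stem from fluorescent compounds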
Target sequence (P07550 whole entry, looked up): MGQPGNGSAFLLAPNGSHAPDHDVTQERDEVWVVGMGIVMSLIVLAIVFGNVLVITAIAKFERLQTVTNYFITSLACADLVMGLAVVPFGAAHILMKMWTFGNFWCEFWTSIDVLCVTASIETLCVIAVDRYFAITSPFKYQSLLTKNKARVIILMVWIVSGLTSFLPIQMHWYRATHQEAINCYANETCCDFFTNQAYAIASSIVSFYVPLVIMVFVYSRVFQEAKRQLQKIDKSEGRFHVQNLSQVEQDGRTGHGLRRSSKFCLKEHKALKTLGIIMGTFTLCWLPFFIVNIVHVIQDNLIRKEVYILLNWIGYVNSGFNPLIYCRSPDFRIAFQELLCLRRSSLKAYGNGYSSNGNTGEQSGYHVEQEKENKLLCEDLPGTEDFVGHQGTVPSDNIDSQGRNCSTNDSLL
Bfl-1 A1 inh = inhibitors of the anti-apoptotic protein A1, read as caspase activation. MEF A1-2A-BIM cells, Caspase-Glo 3/7 luminescence, 3 h; percent of clofoctol response, vehicle zero. caspase activation, % (concentration not given with the values). 330,000 tested, 0.066% active. AID 2462;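 active = over half of replicate activation scores above 10%, or exactly half above 10 with the replicate mean above 10; inconclusive = replicate mean below 10 yet half the replicates above 10; inactive = over half of replicates below 10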;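 also: wells of about 30 µL received 50 nL stock; many hits fall short of the cut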
T cruzi repl = T. cruzi replication inhibition; 300,000 tested, 1.4% active; inhibition, % (test concentration not listed); AID 1885; T. cruzi beta-gal in NIH3T3, luminescence, 90 h;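 active = mean inhibition across valid replicates above about 55%, limit read from the data; inconclusive = mean below that limit but half or more replicates reach it; inactive = mean below it, under half of replicates reach it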;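 also: signal also drops with host cell toxicity which is not excluded here; 0% = plate median of DMSO wells and 100% = zero luminescence signal; higher percent means less beta-gal luminescence so fewer parasites; stock transfer was 50 nL into about 50 µL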
Beta apoptosis = blocks beta cell apoptosis. 300,000 tested, 0.8% active. INS-1E cytokine-induced death, ATP luminescence, 48 h; percent of positive-control rescue, neutral wells zero. AID 435005. protection from apoptosis, % (concentration not given with the values);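 active = all replicates at 75% or more, or half of them and the mean; inconclusive = half reach 75% but not the mean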;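 also: 0% = cytokine-treated negative control wells and 100% = positive control rescue; higher means more ATP so stronger rescue from cytokine killing; wells of about 40 µL received 100 nL stock; the first replicate is given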
Calb FLC = affects C. albicans growth with fluconazole | C. albicans CaCi-2 (fluconazole-resistant clinical isolate) + fluconazole, Alamar Blue growth, 48 h | growth inhibition, % (test concentration not listed) | 300,000 tested, 0.57% active | AID 1979;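 active = most replicates above 75%; inconclusive = exactly half above 75%; inactive = most below 75%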;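 also: all wells also contain fluconazole at 8 µg/ml as a sub-toxic cotreatment; 0% = median of DMSO wells and 100% = median of geldanamycin control wells; wells of about 8 µL received 7.5 nL stock; the first replicate is given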
UCH37 inh = human UCH37 deubiquitinating enzyme inhibition | purified proteasome/UCH37, Ub-AMC cleavage fluorescence | inhibition, % (no concentration beside the values) | 330,000 tested, 0.33% active | Q9Y5K5;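 active = mean of two replicates above 20%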;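 also: 0% = compound-free wells with enzyme and 100% = wells lacking proteasome; stock transfer was 100 nL into about 20 µL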
Target sequence (Q9Y5K5 whole entry, looked up): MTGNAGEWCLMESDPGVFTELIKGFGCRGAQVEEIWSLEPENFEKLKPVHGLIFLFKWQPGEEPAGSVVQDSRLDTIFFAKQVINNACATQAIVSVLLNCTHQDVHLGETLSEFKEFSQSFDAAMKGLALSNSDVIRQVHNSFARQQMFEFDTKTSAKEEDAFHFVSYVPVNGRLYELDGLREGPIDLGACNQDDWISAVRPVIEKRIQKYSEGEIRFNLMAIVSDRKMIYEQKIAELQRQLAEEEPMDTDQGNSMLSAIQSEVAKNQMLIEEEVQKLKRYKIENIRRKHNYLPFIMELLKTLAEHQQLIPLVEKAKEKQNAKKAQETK
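Material: Human UCH37 enzyme supplied as purified proteasome complex | Schedule: 30 min preincubation with enzyme, 25 min cleavage at room temperature | Detection: AMC fluorescence 355/460 nm | Measure: % inhibition of Ub-AMC cleavage fluorescence | Controls: Wells without proteasome as full block, compound-free enzyme plus substrate as uninhibited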
LANA-H2B inh = blocks KSHV LANA binding to histone H2A/H2B | inhibition, % (no concentration beside the values) | Q9QR71 | cell-free LANA-H2A/H2B peptide, fluorescence polarization | 320,000 tested, 0.6% active | AID 2629; in the data active = inhibition mostly above about 10%, no sharp cut-off; inactive = mostly below about 6.7%;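 also: stock transfer was 7.5 nL into about 10 µL; 0% = median of vehicle wells and 100% = median of positive control wells; one replicate is shown; the record names a cut of 25% in any replicate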
The depositor's hits bear a star; ? = inconclusive; / = not tested or not shown.

SMILES	RanGTP-Impb inh	Beta2AR agonist	Bfl-1 A1 inh	T cruzi repl	Beta apoptosis	Calb FLC	UCH37 inh	LANA-H2B inh
Clc1cc(Cl)c(Cl)c(Cl)c1Cl	/	3	0.6	/	5	/	0.2	-3.6
CCc1cccc(C)c1NC(=O)CSc1nc2ccccc2n1CC(=O)N(C)C	/	-2	-0.5	/	-3	/	0.0	13
O=C(N/N=C/c1cccc(Cl)c1)c1c(O)c2c([nH]c1=O)CCCC2	6.6	-1	-6.9	-13	6	-3	/	0.5
O=C1C=C(Nc2cccc(Cl)c2)CC(c2ccco2)C1 (stereo not given)	-2.8	-8	1.2	9	1	-9	0.3	-0.2
COc1ccc(-c2[nH]ncc2CN2CCC(N3CCSCC3)CC2)c(F)c1	-7.1	1	-0.4	-9	0	-3	0.2	2.6
COc1ccc(/C=C/c2nnc(NC(=O)CC(C)C)s2)cc1	3.9	-2	0.4	-4	-8	-1	-476	0.3
Cc1ccc([N+](=O)[O-])cc1NC(=O)c1ccc(C(C)(C)C)cc1	4.5	13	-0.6	-17	12	19	-0.2	1.5
CCCN(CC(=O)Nc1cc(Cl)cc(Cl)c1)CC(=O)Nc1ccc(F)c(F)c1F	-0.5	12	1.0	49	-9	1	-8.4	0.9
Cc1nc2nc(C)c(CCC(=O)N3CCOCC3)c(C)n2n1	-6.1	1	-0.9	-2	0	16	4.0	-0.4
Cc1cc(C(=O)CSc2nc3ccccc3c(=O)[nH]2)c(C)n1CC1CCCO1 (stereo not given)	-0.7	0	-0.7	24	50	0	/	-0.3
CC(NC(=O)Cc1ccccc1)C1COc2ccccc2O1 (stereo not given)	-2.0	-4	0.6	-6	-2	-29	4.1	-0.3
O=C1CC2(CCN(C(=O)c3ccc(Br)cc3)CC2)Oc2ccccc21	5.9	3	0.4	14	-2	-4	-15	-1.2
CCNc1nc(N2CCCC2)nc(N2CCCC2)n1	-1.5	8	0.6	-12	0	-12	2.4	1.1
COC(=O)CCCC(=O)NC1CCCc2c1cnn2-c1ccc(F)cc1F (stereo not given)	-1.2	3	0.5	-5	/	1	3.3	0.6
CCN1CCCC1CNC(=O)C(=O)Nc1cccc(OC)c1 (stereo not given)	-0.6	-2	0.1	8	-2	-5	3.6	4.1
C/C(CC(=O)Nc1cccnc1)=N\NC(=O)C(C)Oc1ccc(Cl)cc1Cl (stereo not given)	-1.0	-8	0.2	-24	5	-3	/	-0.9
N#Cc1c(SCC(N)=O)nc2c(c1-c1ccncc1)CCCC2	-0.3	-5	0.0	13	-5	-13	1.2	0.1
O=C(NNS(=O)(=O)c1ccc(F)cc1F)c1csc(-c2cccnc2)n1	0.4	2	-0.4	0	-2	1	4.8	1.2
COc1ccc(N2CCN(CC(=O)Nc3cc(C)on3)CC2)cc1	1.6	-1	0.9	-4	-3	7	1.8	2.6
Cc1ccc(C)c(SCc2nc3sc(C(=O)O)c(C)c3c(=O)[nH]2)c1	-1.7	-2	1.1	-16	-16	1	2.5	-1.2
COc1ccc(CN(C)CC(=O)Nc2sc3c(c2C#N)CCC3)cc1OC	-5.0	-5	0.5	27	22	9	2.2	1.0
Cc1nnc(SCC(=O)NCc2cccs2)n1-c1ccccc1	0.1	-7	0.1	-1	-4	5	3.8	0.2
CC(C)[C@H](NC(=O)N1CC(=O)Nc2ccccc21)C(=O)N1CCC(C(=O)O)CC1	-2.4	6	-0.3	-4	-8	/	0.3	-2.7
CC(C)(CSc1nncn1N)NS(=O)(=O)c1ccc(Cl)cc1	-0.3	24	-0.3	-3	/	29	1.4	-3.9
O=C(NCCCN1CCOCC1)C(c1ccccc1)c1ccccc1	4.4	-3	-0.1	0	-3	-2	1.7	-2.4
O=C(NCc1ccc2c(c1)OCO2)c1ccc(CS(=O)(=O)c2cccc(C(F)(F)F)c2)o1	2.1	-16	0.1	-6	-2	1	-0.8	-3.2
COc1cc2c(cc1OC)[C@H](C)N(C(=O)NCc1ccccc1)CC2	3.9	-3	1.3	-8	-5	-5	1.4	2.4
CCC(C(=O)Nc1c(C)cc(C)cc1C)N1CCCCCC1 (stereo not given)	-4.3	-7	1.2	4	1	-6	1.5	-5.0
O=C(c1cc(-c2ccc(O)cc2)on1)N1CCc2ccccc2C1	4.2	5	0.1	3	2	-17	4.9	-3.8
O=C(N/N=C/c1cccs1)c1cnccn1	0.0	-5	0.7	-36	3	0	/	-0.8
S=c1nc[nH]c2c1[nH]c1ccc(Cl)cc12	0.7	18	0.3	-16	2	-10	4.1	-2.3
CCOC(=O)c1ccccc1NC(=O)CSc1ccccc1	-1.8	-8	0.8	11	1	30	-0.5	2.8
COc1ccc(CC(=O)NCc2n[nH]c(=S)n2-c2ccc(F)cc2)cc1	0.5	16	0.1	-1	-5	-8	-1.8	2.0
CCOC(=O)C1CCCN(C(=O)c2ccc(C(=O)c3ccccc3)cc2)C1 (stereo not given)	/	6	0.1	/	-3	/	-0.7	-3.2
Cc1cc(SCC(=O)NCCC2=CCCCC2)nc2ccccc12	-5.7	-4	0.0	5	1	-9	5.1	0.6
OC1CCN(Cc2cn(Cc3ccccc3)nc2-c2cc3ccccc3o2)CC1	-0.9	2	0.2	8	2	-23	0.6	1.7
O=C(O)c1ccc2c(c1)C(=O)N(N1C(=O)c3ccccc3C1=O)C2=O	0.8	-4	-1.5	-4	5	6	2.4	-4.0
O=C(c1ccc(=O)[nH]c1)N1CCN(S(=O)(=O)c2cc(C(F)(F)F)ccc2Cl)CC1	-0.1	-2	0.0	0	-2	4	-0.9	3.4
COc1ccc(S(=O)(=O)N2CCOCC2)cc1NC(=O)CN1C(=O)NC2(CCCCC2C)C1=O (stereo not given)	/	2	-0.5	/	3	/	1.2	-2.6
CCc1cccc(C)c1NC(=O)c1ccoc1C	5.9	29	-0.4	0	6	5	-1.3	-0.2

Entries listed so far that contain a cyano group (2):
SMILES	RanGTP-Impb inh	Beta2AR agonist	Bfl-1 A1 inh	T cruzi repl	Beta apoptosis	Calb FLC	UCH37 inh	LANA-H2B inh
N#Cc1c(SCC(N)=O)nc2c(c1-c1ccncc1)CCCC2	-0.3	-5	0.0	13	-5	-13	1.2	0.1
COc1ccc(CN(C)CC(=O)Nc2sc3c(c2C#N)CCC3)cc1OC	-5.0	-5	0.5	27	22	9	2.2	1.0

Remaining list, next part.
SMILES	RanGTP-Impb inh	Beta2AR agonist	Bfl-1 A1 inh	T cruzi repl	Beta apoptosis	Calb FLC	UCH37 inh	LANA-H2B inh
COc1cccc(/C=C2\SC(=S)N(CCCC(=O)N3CCCCC3)C2=O)c1	-0.2	17	0.0	-5	-51	-1	5.4	-1.5
COc1ccc(S(=O)(=O)N(Cc2ccccc2)c2ccccc2C(=O)Nc2ccccc2C(=O)NCc2ccco2)cc1	-1.8	3	-0.4	24	/	11	3.7	1.8
O=C(c1ccccc1)N1CCC(CC2CC(c3ccc(Cl)cc3)=NO2)(C(=O)NCC2CCCCC2)CC1 (stereo not given)	-2.2	-3	0.2	-2	-10	15	23*	-1.5
Cc1nnc(N/N=C/c2ccc(-c3ccc(Br)cc3)o2)n1N	-2.4	-9	-0.2	-6	6	54	/	5.6
CCOC(=O)C1=C(C)NC(C)=C(C(=O)OCC)C1c1ccccc1/C=C/C(=O)OC(C)(C)C	2.8	/	-0.6	32	39	/	/	-3.4
CC1CCC(NC(=O)c2ccc3c(c2)S(=O)(=O)c2ccccc2C3=O)CC1 (stereo not given)	0.2	9	2.2	9	3	-2	0.4	0.6
COc1ccc(NC(=O)Cc2ccccc2)cn1	1.5	-5	-0.5	-6	1	22	-0.8	9.0
O=c1[nH][nH]c(C(F)(F)F)c1C=Nc1ccccc1	4.0	5	0.2	-6	3	-7	5.7	-1.5
CN1C(=O)/C(=C/c2ccc(-c3ccccc3[N+](=O)[O-])o2)SC1=Nc1ccc(Cl)c(C(=O)O)c1	0.9	4	0.0	-5	1	1	5.3	/
CS(=O)(=O)N(CCC#N)Cc1ccc(/C=C2\C(=O)Nc3ccccc32)o1	-2.4	-8	-0.1	0	-6	3	11	0.1
CSc1ccc(-c2sc(Nc3cccc4ccccc34)n[n+]2-c2ccccc2)cc1	1.7	5	-2.2	36	26	-2	5.9	-1.9
O=C1CCC(C(=O)N2CCC(CO)(Cc3ccc(Cl)cc3)CC2)=NN1	0.5	5	0.5	-15	-13	?	-0.7	-0.2
Cc1cc(NC(c2cccnc2)c2c(C)[nH]c3ccccc23)no1 (stereo not given)	-5.9	2	1.9	-6	-1	2	4.1	1.0
CC1Cc2nc(SCC(=O)N3CCN(c4ccccc4)CC3)n(CCc3ccccc3)c(=O)c2S1 (stereo not given)	2.8	36	-1.0	33	-3	7	6.8	1.9
COc1cccc(C2C(C(=O)c3cccs3)=C(O)C(=O)N2CCN2CCOCC2)c1 (stereo not given)	?	8	0.0	-6	-6	2	11	3.0
CC1CN(c2oc(Cc3cccc4ccccc34)nc2C#N)CC(C)O1 (stereo not given)	0.9	3	-0.7	5	5	-3	2.0	-1.5
O=C(Cc1n[nH]c(=O)c2ccccc12)OCC(=O)N(Cc1ccccc1)Cc1ccccc1	1.8	15	0.2	17	-1	4	1.7	-6.1
CCC1(C)NC(=O)N(CC(=O)N2CCC(Cc3ccccc3)CC2)C1=O (stereo not given)	/	3	0.4	/	2	/	3.8	5.7
O=C(c1ccco1)N1CCCC(c2nc3c(nnn3Cc3ccccc3)c(=O)[nH]2)C1 (stereo not given)	-4.8	8	0.9	-2	/	9	2.7	-6.4
Cc1ccc(Oc2ccccc2NC(=O)C2=COCCO2)cc1	?	8	-0.3	7	-5	6	1.8	-0.7
Cc1cc(C)c(C#N)c(SCC(=O)Nc2ccc(S(=O)(=O)Nc3onc(C)c3C)cc2)n1	-1.7	-3	0.9	-18	0	6	2.8	-1.7
O=C(c1ccc(Oc2ccc([N+](=O)[O-])cc2Cl)cc1)N1CCCC1	-0.9	-3	-0.5	2	6	27	3.2	2.0
CCCC1CC(c2csc(N)n2)CCO1 (stereo not given)	0.8	-2	1.6	2	1	-9	-2.4	-0.2
CN(CC(=O)Nc1ccccc1Br)C(=O)c1ccncc1	2.7	4	0.4	-27	-3	-1	1.5	29*
Cn1c(/N=C/c2ccc3c(c2)OCO3)nc2ccccc21	5.4	-9	-0.1	-9	-16	-2	/	-4.2
CCOc1ccc(N=C2NC(=O)S/C2=C\c2ccc(OC)cc2)cc1	-3.4	-5	1.8	-16	0	29	5.8	1.4
CN(C)C(=O)c1cn(-c2ccccc2)nc1-c1cccs1	-3.1	-3	0.4	0	-5	106*	0.6	-3.9
CCOc1ccc(NC(=O)CCN2CCN(S(=O)(=O)c3cc(Cl)ccc3OC)CC2)cc1	2.4	-1	0.4	22	-6	1	0.7	-2.5
O=C(CCCCCCN1C(=O)c2ccccc2C1=O)Nc1nccs1	?	-9	-1.6	1	-2	3	2.1	2.8
CC1=Nn2c(nc(-c3ccccc3)c2-c2ccccc2)NC(=O)C1Br (stereo not given)	-5.7	6	?	-7	2	0	1.6	-4.5
CCCn1c(=NC(=O)CCS(=O)(=O)c2ccccc2)sc2cc(S(N)(=O)=O)ccc21	2.4	6	0.2	-1	-10	7	3.5	-3.7

Not a hit list (roughly 4.3% active in at least one column).
